Bioassay records (PubChem)
HSD17B inhib: qHTS Assay for Inhibitors of HSD17B4, hydroxysteroid (17-beta) dehydrogenase 4 | recombinant HSD17B10, NADH fluorescence kinetic; many of its hits are not listed in these tables | 3-hydroxyacyl-CoA dehydrogenase type-2 (Homo sapiens), Q99714 | Potency, µM (series often up to 57.1 µM), for the others: at the top dose activity change, negative = inhibition, usual class: inhibitors | 75,000 tested, 7.6% active; active means well fitted inhibition curve with a large enough effect; inconclusive means small, poorly fitted or top-dose-only effect; inactive means no such curve, though single readings can be large or run the other way;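 further: the protocol describes HADH2 (HSD17B10) and not the HSD17B4 of the title; nearly all actives have a fitted effect of over 70% in size; most hits overshoot -100% by far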
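Activity followed as NADH fluorescence increase (ex 360, em 450 nm) every 30 seconds for 4 min, using final 90 uM beta-hydroxybutyryl CoA and 1 mM NAD+. Recombinant His-tagged enzyme, 20 nM, pH 9.0 Tris buffer, 15 min compound preincubation.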
The depositor's hits bear a star; [ ] = remark or other dose. On the % scale 0 is the no-effect control and ±100 the full control effect; potency means the concentration at half of the fitted maximal effect.

For COC(=O)c1ccc(OC(=O)C2CC(=O)N(c3ccc(C)cc3C)C2)cc1 (stereo unspecified) the results were HSD17B inhib 0%.
Screening CCOc1ccccc1C(=O)Nc1nccs1 returned HSD17B inhib -21%.
`CCOC(=O)C1C(=O)NC(N2CCOCC2)=NC1C(C)C` (stereo unspecified) gave HSD17B inhib -3%.
For CC(NC(=O)CN1CCC(C(N)=O)CC1)c1ccccc1 (stereo unspecified) the results were HSD17B inhib 9%.
CCOC(=O)c1cccnc1SC(CC)C(=O)N1CCOCC1 (stereo unspecified) was read as HSD17B inhib -4%.
For CN1CCN(C(CNS(=O)(=O)c2ccc(Cl)cc2)c2cccnc2)CC1 (stereo unspecified) the results were HSD17B inhib 14%.
Screening CCn1cc(-c2cc(C(F)(F)F)n3nc(C(=O)O)cc3n2)c(C)n1 returned HSD17B inhib inconclusive.
Screening COC(=O)c1ccccc1NC(=O)CSc1nnnn1C1CCCCC1 returned HSD17B inhib 3%.
`CCOc1cc(-c2noc(CCC(=O)Nc3cccnc3)n2)ccc1OC` gave HSD17B inhib 5%.
Screening CCOC(=O)c1c(CN2CCCCC2)n(C)c2cc(Br)c(OC)cc12 returned HSD17B inhib -4%.
For CC(=O)N1CCC[C@@]2(CCN(Cc3cc(C(F)(F)F)cc(C(F)(F)F)c3)C2)C1 the results were HSD17B inhib 2%.
CCc1nc2cc(C)nn2c2nc3ccccc3n12 was read as HSD17B inhib 6%.
O=C(NCCN1CCOCC1)c1ccc2c(c1)ncn2C1CCCC1 was read as HSD17B inhib -5%.
For Cc1ccc(C(=O)N2CCOCC2)cc1Cl the results were HSD17B inhib 9%.
Screening CS(=O)(=O)c1nncn1-c1ccccc1 returned HSD17B inhib 4%.
`Cc1noc(C)c1C(=O)N1CCC2(CC1)CCN(c1ccncc1)CC2` gave HSD17B inhib -17%.
CCCC[C@@H]1CN2[C@H](c3ccc(Br)cc3)[C@@H](C)CC[C@H]2C(=O)O1 was read as HSD17B inhib 6%[11.4 µM].
Screening Cn1c(NC(=O)C2CCCO2)cc(=O)n(C)c1=O (stereo unspecified) returned HSD17B inhib 8%.
Screening Cc1nnc(Nc2ccc3c(c2)ncn3C)c2ccccc12 returned HSD17B inhib 4%.
For O=C(CSc1nnc(CNC(=O)c2ccccc2F)o1)c1ccc(Cl)cc1 the results were HSD17B inhib -7%.
Cc1nn(Cc2ccccc2)c(Cl)c1C(=O)NCc1ccc(C)n1C was read as HSD17B inhib -14%.
CCOC(=O)CNC(=O)CSc1nc2cccnc2n1C was read as HSD17B inhib 4%.
For CCc1ccc(-c2nn[nH]n2)cc1 the results were HSD17B inhib 0%.
`COc1ccc(OC)c2[nH]c(=O)c(CCNC(=O)c3ccc(Br)o3)cc12` gave HSD17B inhib -2%.
Screening c1ccc(-c2nnc(-c3ccco3)n2-c2ccccc2)cc1 returned HSD17B inhib 32µM*.
`COc1ccc(CCN(C(=O)c2ccc(F)cc2)C2=CC3CCC(C2)N3C)cc1OC` (stereo unspecified) gave HSD17B inhib 1%.
Screening COc1ccc(COC(=O)c2ccc(N3CCCC3=O)cc2)cc1F returned HSD17B inhib -24%.
For COc1cccc(NS(=O)(=O)c2ccc3[nH]cc(C(=O)NCCCOC(C)C)c(=O)c3c2)c1 the results were HSD17B inhib inconclusive.
Screening COc1ccc(OCC(O)CNc2ccc(Br)cc2)cc1 (stereo unspecified) returned HSD17B inhib 6%.
For CC(C)n1c(SCc2ccccc2F)nc2c1c(=O)n(C)c(=O)n2C the results were HSD17B inhib 0%.
For COC(=O)c1sc(N)c(C(=O)OC)c1CSc1nc2sc3c(c2c(=O)n1C)CCC3 the results were HSD17B inhib inconclusive.
For C#CCN1C(=O)C(O)(CC(=O)c2ccc3c(c2)OCCO3)c2ccccc21 (stereo unspecified) the results were HSD17B inhib -6%.
Screening O=C(N1CCN(c2ccccc2)CC1)C(F)(F)C(F)F returned HSD17B inhib 2%.
For N=c1n(CCO)c2ccccc2n1Cc1ccc(Cl)cc1 the results were HSD17B inhib 9%.
CC12C=C(/C=C/CCc3ccco3)C(C)(C1)C(CCc1ccco1)CC2=O (stereo unspecified) was read as HSD17B inhib 4µM*.
Screening CCOc1cccc2cc(-c3csc(NC(=O)CCC(=O)N4CCN(C)CC4)n3)c(=O)oc12 returned HSD17B inhib -3%.
Screening O=C1CC(N2CCC(O)(c3ccc(Cl)cc3)CC2)C(=O)N1 (stereo unspecified) returned HSD17B inhib 3%.
Screening O=C(CCCSc1nc2sc3c(c2c(=O)[nH]1)CCC3)NCCCO returned HSD17B inhib inconclusive.
Screening Cc1ccoc1C(=O)NCCCNC(=O)c1occc1C returned HSD17B inhib 2%.
`CCc1nnc(NC(=O)C2CC(=O)N(Cc3ccco3)C2)s1` (stereo unspecified) gave HSD17B inhib 5%.
For c1ccc(Cc2nnc3sc(-c4cccs4)nn23)cc1 the results were HSD17B inhib -2%.
Screening CCOc1ccccc1C1C2C(=O)N(c3ccccc3)C(=O)C2ON1c1ccccc1 (stereo unspecified) returned HSD17B inhib 3%.
`CCc1ccc(NS(=O)(=O)c2ccc3[nH]cc(C(=O)N4CCCCC4)c(=O)c3c2)cc1` gave HSD17B inhib 16µM*.
O=C(CSc1nnc(Cc2cccs2)n1Cc1ccco1)Nc1cccc(Cl)c1 was read as HSD17B inhib -22%.
Screening OCCNc1nc(-c2cccnc2)nc2ccccc12 returned HSD17B inhib 3%.
For Cc1ccccc1CN1C2=NCCN2c2ccccc21 the results were HSD17B inhib -2%.
Cc1cc(F)ccc1S(=O)(=O)Nc1ccccc1C(=O)Nc1ncn[nH]1 was read as HSD17B inhib 25µM*.
`CC(C)Cn1c(SCC(=O)NC2CCCc3ccccc32)nc(O)cc1=O` (stereo unspecified) gave HSD17B inhib 5%.
Screening O=C(NCC(c1cccnc1)N1CCN(c2ccccc2F)CC1)c1ccccc1 (stereo unspecified) returned HSD17B inhib inconclusive.
Screening COCCCNC(=O)C1CCCCN1S(=O)(=O)c1ccc(F)cc1 (stereo unspecified) returned HSD17B inhib 10%.
Screening O=C(CN1CCN(C(=O)c2cccc(F)c2)CC1)NC1CCCCC1 returned HSD17B inhib 7%.
Screening COc1ccc(-c2c(C)nn3c(N4CCC(C(=O)NCCN(C)C)CC4)cc(C)nc23)cc1OC returned HSD17B inhib 8%.
For CS(=O)(=O)N(CC(=O)Nc1ccc2c(c1)OCO2)Cc1ccccc1 the results were HSD17B inhib 5%.
For CC1CC(C(F)(F)C(F)(F)F)n2nc(C(=O)O)cc2N1 (stereo unspecified) the results were HSD17B inhib -5%.
Screening CS/C(=N\S(=O)(=O)c1ccc(N)cc1)NS(=O)(=O)c1cccs1 returned HSD17B inhib -25%.
Screening COC(=O)[C@H](C)NC(=O)Nc1ccc(Oc2ccccc2)cc1 returned HSD17B inhib 13%.
`CN(C)CCOC(=O)c1ccc(N)cc1` gave HSD17B inhib 2%[11.4 µM].
Screening O=C(Cn1nnc(-c2ccncc2)n1)Nc1ccc2c(c1)CCC2 returned HSD17B inhib -7%.
COc1ccc(-c2noc(CCC(=O)Nc3ccc4c(c3)OCCO4)n2)cc1 was read as HSD17B inhib 0%.
For COc1ccc(C2=NOC(Cn3c(Cc4ccc(Cl)cc4)nc4c3c(=O)n(C)c(=O)n4C)C2)cc1 (stereo unspecified) the results were HSD17B inhib -18%.
For CCOC(=O)N1CCC(NC(=O)c2cc3c(-c4ccccc4F)nn(C)c3s2)CC1 the results were HSD17B inhib 25µM*.
Screening COC(=O)CC1Sc2ccccc2NC1=O (stereo unspecified) returned HSD17B inhib 2%.
Cn1c(=O)c2c(-c3ccccc3)n(C3CCCCC3)cc2n(C)c1=O was read as HSD17B inhib -3%.
Screening CC(=O)c1cc(C)ccc1OC(=O)c1cccc2nc(C)oc12 returned HSD17B inhib -11%.
Cc1ccc(/C=N/n2cnc3sc4c(c3c2=O)CCCC4)o1 was read as HSD17B inhib -7%.
For CC(=O)Nn1c(COc2ccccc2C)nc2ccccc2c1=O the results were HSD17B inhib 7%.
COc1ccc(C(=O)NCc2n[nH]c(=S)n2-c2ccccc2)cc1OC was read as HSD17B inhib -1%.
`COc1ccc(OCc2nnc3n2N=C(c2ccc(C)cc2)CS3)cc1` gave HSD17B inhib -4%.
Screening CC1C(=O)OC2C(O)C34C5CC(C(C)(C)C)C36C(OC(=O)C6O)OC4(C(=O)O5)C12O (stereo unspecified) returned HSD17B inhib -2%.
For Cc1nc(-c2ccccc2O)n(S(=O)(=O)N(C)C)n1 the results were HSD17B inhib 9%.
CCC(C)[C@H](NC(=O)NC1CC1)C(=O)O (stereo partly specified) was read as HSD17B inhib 15%.
Screening COC(=O)c1sc(N)c(C(=O)OC)c1COC(=O)C1CC(=O)N(Cc2ccco2)C1 (stereo unspecified) returned HSD17B inhib -28%.
COc1ccc(C(C(C(=O)c2ccco2)N2CCOCC2)N2CCOCC2)cc1 (stereo unspecified) was read as HSD17B inhib 2%.
Screening CC(=O)c1cccc(NC(=O)CN(Cc2ccccc2)S(C)(=O)=O)c1 returned HSD17B inhib 5%.
Screening COc1ccc(NC(=O)CSc2nccc(C)n2)cc1 returned HSD17B inhib -7%.
Screening NC(=O)c1cc2n(n1)C(C(F)(F)F)CC(c1ccco1)N2 (stereo unspecified) returned HSD17B inhib -10%.
Screening Cc1nc(=S)n(-c2ccccc2)[nH]1 returned HSD17B inhib -1%.
Screening COc1cccc(C2CC(c3ccc(Cl)cc3Cl)n3nc(N)nc3N2)c1 (stereo unspecified) returned HSD17B inhib -6%.
For Cn1nccc1C(=O)c1ccc(Cl)cc1 the results were HSD17B inhib 0%.
CCOc1ccc(NC(=O)CN2CCN(CC(=O)Nc3cccc(F)c3)CC2)cc1 was read as HSD17B inhib -5%.
`COc1ccc(/C=C/C(=O)c2cc(O)ccc2O)cc1` gave HSD17B inhib inconclusive.
For O=C(c1noc2c1CCCC2)N1CCN(c2ccccc2)CC1 the results were HSD17B inhib -8%.
`O=C(O)C1(Nc2ccc(Cl)cc2)CCCC1` gave HSD17B inhib 3%[11.4 µM].
`CSc1nc(C)cc(Nc2ccc(O)c(CN3CCCCC3)c2)n1` gave HSD17B inhib -1%[11.4 µM].
O=C(COc1ccccc1)N1CCN(c2ncnc3c2cnn3-c2ccccc2)CC1 was read as HSD17B inhib -3%.
For Clc1ccccc1-c1nccc(NCCN2CCOCC2)n1 the results were HSD17B inhib 8%.
For COCC(=O)N1CCC2(CC1)CN(C(=O)Nc1ccc(OC)cc1)C2 the results were HSD17B inhib 1%.
Screening c1ccc2c(Cn3ccnc3)c[nH]c2c1 returned HSD17B inhib -3%.
`C[C@H](C(=O)O)c1n[nH]c(=O)c2ccccc12` gave HSD17B inhib 6%.
Screening Fc1ccc(CN(C2=NCCN2)c2c(Cl)cccc2Cl)cc1 returned HSD17B inhib 8%.
`COc1cc(C2NC(C(=O)O)Cc3c2[nH]c2ccccc32)cc(OC)c1OC` (stereo unspecified) gave HSD17B inhib -5%[11.4 µM].
Screening O=C(NC1CCCC1)C(c1ccncc1)N(Cc1cccs1)C(=O)c1csnn1 (stereo unspecified) returned HSD17B inhib -6%.
`N#CCCCSc1ncccc1-c1nc2ccccc2[nH]1` gave HSD17B inhib -14%.
CCOC(=O)c1cccc(NC(=O)Cn2cnc3c2c(=O)n(C)c(=O)n3C)c1 was read as HSD17B inhib 3%.
For Cc1cc(C)n(-c2ccc(C(=O)OCC(=O)NCc3ccco3)cc2)n1 the results were HSD17B inhib -1%.
For CCOC(=O)N1CCN(c2c(Nc3cc(C)[nH]n3)c(=O)c2=O)CC1 the results were HSD17B inhib -1%.
For O=C(CSc1nnc(COc2ccccc2)n1Cc1ccco1)NCc1ccco1 the results were HSD17B inhib -25%.
CC(=O)N(C)c1ccc(NC(=O)c2ccccc2C(=O)O)cc1 was read as HSD17B inhib -2%.
For CC1CC(C)CN(c2ncc3c(n2)CC(c2ccc(Cl)cc2)CC3=O)C1 (stereo unspecified) the results were HSD17B inhib 1%.
For COc1ccc(C2(NC(C)=O)CCN(C(=O)CCC(=O)O)CC2)cc1 the results were HSD17B inhib 2%.
`COc1ccc(N(C(C)=O)S(=O)(=O)c2cc(OC)ccc2OC)cc1` gave HSD17B inhib 2%.

Structures from the list above that contain an aryl thioether with sulfur outside any ring (13):
CCOC(=O)c1cccnc1SC(CC)C(=O)N1CCOCC1 (stereo unspecified) was read as HSD17B inhib -4%.
Screening COC(=O)c1ccccc1NC(=O)CSc1nnnn1C1CCCCC1 returned HSD17B inhib 3%.
For O=C(CSc1nnc(CNC(=O)c2ccccc2F)o1)c1ccc(Cl)cc1 the results were HSD17B inhib -7%.
CCOC(=O)CNC(=O)CSc1nc2cccnc2n1C was read as HSD17B inhib 4%.
For CC(C)n1c(SCc2ccccc2F)nc2c1c(=O)n(C)c(=O)n2C the results were HSD17B inhib 0%.
For COC(=O)c1sc(N)c(C(=O)OC)c1CSc1nc2sc3c(c2c(=O)n1C)CCC3 the results were HSD17B inhib inconclusive.
Screening O=C(CCCSc1nc2sc3c(c2c(=O)[nH]1)CCC3)NCCCO returned HSD17B inhib inconclusive.
O=C(CSc1nnc(Cc2cccs2)n1Cc1ccco1)Nc1cccc(Cl)c1 was read as HSD17B inhib -22%.
`CC(C)Cn1c(SCC(=O)NC2CCCc3ccccc32)nc(O)cc1=O` (stereo unspecified) gave HSD17B inhib 5%.
Screening COc1ccc(NC(=O)CSc2nccc(C)n2)cc1 returned HSD17B inhib -7%.
`CSc1nc(C)cc(Nc2ccc(O)c(CN3CCCCC3)c2)n1` gave HSD17B inhib -1%[11.4 µM].
`N#CCCCSc1ncccc1-c1nc2ccccc2[nH]1` gave HSD17B inhib -14%.
For O=C(CSc1nnc(COc2ccccc2)n1Cc1ccco1)NCc1ccco1 the results were HSD17B inhib -25%.

Only part of the results is shown. The share of hits here may be higher or lower than overall.
